KCNQ2 block: KCNQ2 channel blockers in CHO-K1 cells – cell-based, FluxOR thallium flux, B-score, primary screen (AID 2156); 20 min; stronger effect = lower value; only compounds with negative scores are shown here; some inactives read as strong as hits; hit rate 1.1% among 310,000; O88943; B-score at 10 µM;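 active = fluorescence ratio B-score at most minus 3 library SDs, with starting brightness B-score within 2 library SDs, cut at about -5.5 in these data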
Target sequence (O88943 whole entry, looked up): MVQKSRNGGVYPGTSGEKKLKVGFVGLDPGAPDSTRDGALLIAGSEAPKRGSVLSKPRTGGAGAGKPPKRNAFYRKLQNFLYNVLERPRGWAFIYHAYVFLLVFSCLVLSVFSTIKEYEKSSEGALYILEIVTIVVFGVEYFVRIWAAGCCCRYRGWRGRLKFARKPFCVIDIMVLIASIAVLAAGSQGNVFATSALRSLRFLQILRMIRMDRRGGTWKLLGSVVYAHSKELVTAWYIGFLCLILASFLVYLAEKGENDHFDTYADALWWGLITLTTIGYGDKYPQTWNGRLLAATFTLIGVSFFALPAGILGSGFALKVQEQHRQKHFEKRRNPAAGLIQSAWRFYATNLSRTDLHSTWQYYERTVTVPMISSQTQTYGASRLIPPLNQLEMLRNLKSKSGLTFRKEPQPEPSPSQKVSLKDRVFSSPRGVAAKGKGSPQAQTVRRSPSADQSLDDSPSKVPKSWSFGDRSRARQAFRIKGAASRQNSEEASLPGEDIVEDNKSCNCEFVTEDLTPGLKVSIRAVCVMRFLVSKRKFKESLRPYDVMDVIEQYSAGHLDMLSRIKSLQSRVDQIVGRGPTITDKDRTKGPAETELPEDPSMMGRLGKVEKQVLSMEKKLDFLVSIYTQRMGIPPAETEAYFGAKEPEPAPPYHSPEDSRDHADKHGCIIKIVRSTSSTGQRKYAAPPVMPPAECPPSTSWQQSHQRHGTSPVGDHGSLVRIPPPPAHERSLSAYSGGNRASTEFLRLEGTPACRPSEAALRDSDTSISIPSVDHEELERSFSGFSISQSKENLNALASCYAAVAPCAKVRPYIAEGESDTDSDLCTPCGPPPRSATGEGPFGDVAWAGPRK
KCNQ2 block baseline: second read-out of KCNQ2 block, no call of its own (marks repeat the call); B-score; measured here: initial fluorescence intensity artifact check;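 brightness before thallium and not channel activity; 0 = typical well and far values either way flag optical interference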
Active calls of the source: *; i = inactive. Some of the compounds tested, so the mix of outcomes need not match the whole.

SMILES | KCNQ2 block | KCNQ2 block baseline
CC(=O)Nc1ccc(NC(=O)COC(=O)c2c(C)nn(-c3ccccc3)c2C)cc1 | i | 0.04
CC(=O)Nc1cc2c(cc1NC(=O)Cn1nc(-c3ccccc3F)ccc1=O)OCCO2 | i | 0.65
Cc1ccccc1NC(=O)CN(C)S(=O)(=O)c1cccs1 | i | 0.23
O=C(/C=C/c1ccco1)N/C(=C\c1ccco1)C(=O)NCCc1nc2ccccc2[nH]1 | i | 0.18
COc1ccc(C(=O)NCC(=O)N/N=C/c2cccc(OC(=O)c3ccco3)c2)cc1OC | i | -0.06
CNC(=O)c1[nH]cnc1C(=O)NCC(=O)OCc1ccccc1 | i | -1.9
Cc1ccccc1N(CC(=O)N1CCN(c2ccccc2)CC1)S(C)(=O)=O | i | -1.1
O=C1CCC([N+](=O)[O-])C(c2ccccc2F)N1 (configuration not stated) | i | 0.52
CCCn1nnc(NC(=O)c2ccc(OC)cc2)n1 | i | 0.84
CCCCCCC(=O)NC(Nc1ccc(S(N)(=O)=O)cc1)C(Cl)(Cl)Cl (configuration not stated) | i | -0.01
COc1ccc(CCNC(=O)Cn2c(=O)n(-c3cc(F)ccc3F)c(=O)c3sccc32)cc1OC | i | -1.5
CCN(CC(=O)Nc1c(F)cccc1F)C(=O)CN(C)S(=O)(=O)c1ccc(F)cc1 | i | 0.69
CCOC(=O)N1CCN(C(=O)CN(Cc2ccccc2)S(=O)(=O)c2ccc(OC)c(C)c2)CC1 | i | -2
COc1ccc(CC(=O)Nc2nc(-c3ccncc3)cs2)cc1 | i | -1.2
COc1ccc(O)c(/C=C2/SC(=S)N(Cc3ccccc3)C2=O)c1 | i | 1.9
COc1cccc(NC(=O)CSc2nnc(-c3cccnc3)o2)c1 | i | 0.03
CC1CCC(C(=O)NC(C(=O)NCCN2CCC(C)CC2)C(C)C)CC1 (configuration not stated) | i | -0.29
CC(C)(C)NS(=O)(=O)c1ccc(NC(=O)C2CCCO2)cc1 (configuration not stated) | i | 1.8
Cc1nn(S(=O)(=O)N2CCOCC2)c(C)c1Br | i | -0.19
Cc1ncc(CO)c2cc(C(=O)Nc3cccc(F)c3)c(=Nc3cccc(C(N)=O)c3)oc12 | i | 3
COCCn1c(SCC(=O)Nc2cccc(OC)c2)nnc1-c1ccc(Cl)cc1 | i | 0.47
Cc1onc(-c2c(Cl)cccc2Cl)c1C(=O)Nc1ccc(Cl)cn1 | i | -1.3
Cc1ccc(S(=O)(=O)c2nc(-c3cccs3)oc2NCc2cccnc2)cc1 | i | -0.61
O=C(NCc1ccc(F)cc1)C1CCN(S(=O)(=O)c2ccc(Cl)cc2)CC1 | i | 1.1
Cn1c(=O)[nH]c(=O)c2c1nc(N/N=C/c1ccncc1)n2Cc1ccc(F)cc1 | i | 0.52
c1ccc2c(c1)nc1n2CCN1CCNC1CCCCC1 | i | 1.2
C=CCn1c(SCC(=O)NC2CCCC2)nc2sc(C)cc2c1=O | i | -0.08
COc1cc(CNCCc2c[nH]c3ccccc23)ccc1OCc1ccccc1F | i | -2.3
O=C(Cn1cnc2ccccc2c1=O)N1CCN(Cc2ccccc2)CC1 | i | 1.1
Cc1cccn2c(=O)c(C=NCc3ccco3)c(Nc3ccc(SC(F)F)cc3)nc12 | i | -0.39
O=C(CN1CCN(c2ccc(F)cc2)CC1)Nc1cccc(C(F)(F)F)c1 | i | 0.75
Cc1cc(S(=O)(=O)N2CCCCC2)c(C)s1 | i | 2.1
CCN(CC(=O)Nc1ccc2c(c1)OCCO2)C(=O)/C=C/c1ccc(F)cc1 | i | 0.53
COc1cccc(CNC(=O)Cc2ccc(Br)cc2)c1 | i | -0.61
Cc1ccc(C2=CC(c3ccc(N(C)C)cc3)n3nnnc3N2)cc1 (configuration not stated) | i | 0.64
COc1cc(NC(=O)c2cccs2)c(OC)cc1NC(=O)Nc1ccc(F)cc1 | i | 4.2

Single records, as listed above. Values in the order: KCNQ2 block, KCNQ2 block baseline
`O=C(Cn1cnc2ccccc2c1=O)N1CCN(Cc2ccccc2)CC1` is listed with i, 1.1
`O=C(CN1CCN(c2ccc(F)cc2)CC1)Nc1cccc(C(F)(F)F)c1` is listed with i, 0.75
`Cc1cc(S(=O)(=O)N2CCCCC2)c(C)s1` is listed with i, 2.1

Later entries:
SMILES | KCNQ2 block | KCNQ2 block baseline
O=[N+]([O-])c1cccc(-c2nnc3ccc4ccccc4n23)c1 | i | -1.2
Cc1ccc(N(C(C)C(=O)N2CCC(C)CC2)S(C)(=O)=O)cc1C (configuration not stated) | i | 2.2
O=C(NNS(=O)(=O)c1ccccc1Cl)c1nn(-c2ccc(F)cc2)ccc1=O | i | 1.9
CCn1cc([N+](=O)[O-])c(C(=O)Nc2nc(-c3ccc(C)cc3)c(C)s2)n1 | i | -2.2
CCNC(=O)CCSc1nnc(-c2ccco2)o1 | i | -1
CC(C)=NNC(=O)c1c(O)c2ccccc2[nH]c1=O | i | -0.61
CCCc1ccc(-c2cc(C(=O)NC3=NCCS3)c3ccccc3n2)cc1 | i | -0.06
CCN(C(=O)CSc1cc(C)c2ccccc2n1)C1CCS(=O)(=O)C1 (configuration not stated) | i | -0.38
Cc1csc(NC(=O)c2cccc(C)c2C)n1 | i | -0.17
CC(=O)Nc1cccc(-c2nnc(-c3ccc(C)cc3)o2)c1 | i | -0.27
O=C(C1CCN(S(=O)(=O)c2cccc3cccnc23)CC1)N1CCc2ccccc21 | i | -0.39
Cc1cccc(Nc2ncnc3nc[nH]c23)c1 | i | -0.29
COc1cc2c(cc1NC(=O)c1cccc([N+](=O)[O-])c1C)oc1ccccc12 | i | -1.1
Cc1nc(Nc2ccc(Cl)c(Cl)c2)sc1C(=O)Nc1ccccc1 | i | 0.25
Cc1cccc(N(Cc2ccccc2)C(=O)Cc2ccc(S(=O)(=O)N3CCOCC3)s2)c1 | i | -0.19
CCn1c(SCC(=O)NC2(C#N)CCCCC2)nc2ccccc2c1=O | i | 0.05
COc1cccc(NC(=O)COC(=O)c2c3c(nc4ccccc24)CCC(C)C3)c1 (configuration not stated) | i | -0.49
CCOC(=O)c1cc(-c2ccccc2)sc1NC(=O)CN1C(=O)NC(CC)(c2ccc(F)cc2)C1=O (configuration not stated) | i | -2.1
CC(=O)/C(=N\Nc1ccccc1)Sc1nnc(-c2ccccc2)n1-c1ccccc1 | i | 0.26
COc1ccc(-c2nc(SC(CC(=O)NCCO)c3cccs3)n[nH]2)cc1 (configuration not stated) | i | -0.01
COC(=O)C(C)N(C(=O)c1ccc(C(=O)c2ccccc2)cc1)c1c(C)cccc1C (configuration not stated) | i | -2.9
CC(=O)N(c1c(C)n(C)n(-c2ccccc2)c1=O)C1(C(=O)NC2CCCCC2)CCCCC1 | i | -0.69
Cc1ccccc1S(=O)(=O)Cc1ccc(C(=O)NCCCN2CCN(C)CC2)o1 | i | -0.52
CCOc1cc(S(=O)(=O)NCC2CCCO2)ccc1F (configuration not stated) | i | 1.7

Exported tab-delimited: part of the list above.
Structure	KCNQ2 block	KCNQ2 block baseline
COc1cccc(NC(=O)COC(=O)c2c3c(nc4ccccc24)CCC(C)C3)c1 (configuration not stated)	i	-0.49
CCOC(=O)c1cc(-c2ccccc2)sc1NC(=O)CN1C(=O)NC(CC)(c2ccc(F)cc2)C1=O (configuration not stated)	i	-2.1
CC(=O)/C(=N\Nc1ccccc1)Sc1nnc(-c2ccccc2)n1-c1ccccc1	i	0.26
COc1ccc(-c2nc(SC(CC(=O)NCCO)c3cccs3)n[nH]2)cc1 (configuration not stated)	i	-0.01
COC(=O)C(C)N(C(=O)c1ccc(C(=O)c2ccccc2)cc1)c1c(C)cccc1C (configuration not stated)	i	-2.9

In another format: entries from further up.
| structure | KCNQ2 block | KCNQ2 block baseline |
| --- | --- | --- |
| COc1cc2c(cc1NC(=O)c1cccc([N+](=O)[O-])c1C)oc1ccccc12 | i | -1.1 |
| Cc1nc(Nc2ccc(Cl)c(Cl)c2)sc1C(=O)Nc1ccccc1 | i | 0.25 |
| Cc1cccc(N(Cc2ccccc2)C(=O)Cc2ccc(S(=O)(=O)N3CCOCC3)s2)c1 | i | -0.19 |
| CCn1c(SCC(=O)NC2(C#N)CCCCC2)nc2ccccc2c1=O | i | 0.05 |
| COc1cccc(NC(=O)COC(=O)c2c3c(nc4ccccc24)CCC(C)C3)c1 (configuration not stated) | i | -0.49 |

Next part
SMILES | KCNQ2 block | KCNQ2 block baseline
COc1ccc(Cl)cc1NC(=O)C1CCN(S(C)(=O)=O)CC1 | i | -0.88
O=C(OCc1c(Cl)cccc1Cl)c1ccncc1 | i | 0.31
CCOC(=O)c1c(-c2ccccc2)csc1NC(=S)N(CC)CC | i | 0.55
COc1ccc(N2CCC(CNC(=O)Nc3ccc(OC)cc3OC)C2)cc1 (configuration not stated) | i | 0.18
N=c1c(-c2nc3ccccc3[nH]2)cc(C(=O)c2cccs2)nn1-c1ccccc1 | i | 1.7
O=C(NC1CCOc2ccccc21)c1ccc(Cl)nc1 (configuration not stated) | i | 0.28
CCOc1ccc(S(=O)(=O)NCCC(=O)N(C)CC(=O)Nc2ccc(N3CCOCC3)cc2)cc1 | i | -1
Cc1ccc(OCCCC(=O)Nc2ccc(S(=O)(=O)Nc3cc(C)on3)cc2)cc1 | i | 1.1
CCOc1ccc(NS(=O)(=O)c2ccc3c(c2)N(C(C)=O)CC3)cc1 | i | 2.5
OC(CNC1CCCc2ccccc21)COc1ccc2ccccc2c1 (configuration not stated) | i | -0.45
O=C(Cc1ccccc1)c1c[nH]c(C(=O)NCc2ccncc2)c1 | i | -0.03
COc1ccc(-c2nnc(SCc3ccccc3F)o2)cc1OC | i | -1.4
O=[N+]([O-])c1cccc(S(=O)(=O)N2CCCCC2c2cccnc2)c1 (configuration not stated) | i | 2.5
CCOC(=O)C1CCCN(C(=O)c2ccccc2[N+](=O)[O-])C1 (configuration not stated) | i | 0.63
COc1ccc(C)cc1NC(=O)CCS(=O)(=O)c1cc2c(cc1Cl)NC(=O)CO2 | i | 0.18
COC(=O)c1ccc(N2CCN(C)CC2)c(NC(=O)COc2cccc(C)c2)c1 | i | -0.54
NC1=NC(c2ccc(Cl)cc2)N(c2ccc(S(N)(=O)=O)cc2)C(N)=N1 (configuration not stated) | i | -0.01
CN(C)CCCN(C(=O)c1ccco1)c1nc2c(F)cccc2s1 | i | 1.6
C/C(=N\NC(=O)c1cc(-c2cccc(OC(C)C)c2)nc2ccccc12)c1cccnc1 | i | -1
CC(=O)Oc1ccc2c(C)cc(=O)[nH]c2c1 | i | -0.57
COc1ccccc1N1CCN(S(=O)(=O)c2ccc3c(c2)NC(=O)C(C)S3)CC1 (configuration not stated) | i | -0.02
COc1cccc(-c2cc(C(=O)N3CCOCC3)no2)c1 | i | 0.2
COCCn1c(SCC(=O)Nc2nc3ccccc3s2)nnc1-c1ccoc1C | i | -1.6
CCc1noc(C)c1C(=O)Nc1cc(S(=O)(=O)N2CCCCC2)ccc1N(C)C | i | -0.02
CCOc1cc(/C=N/NC(=O)c2cc(-c3ccccc3)nc3ccccc23)ccc1O | i | -0.97
COc1ccc(S(=O)(=O)n2[nH]c(=O)c(CCO)c2C)cc1 | i | 0.35
O=C(COC(=O)CNC(=O)c1ccccc1F)Nc1nnc(-c2ccccc2)o1 | i | 0.21
CN(C1CCCCC1)S(=O)(=O)CCNC(=O)c1ccccc1 | i | -0.05
CSc1c2c(nc3ncnn13)CCC2 | i | -1.9
CCCCCCCCSc1nnc(/N=C/N(C)C)s1 | i | 0.39
CCn1c(SCC(=O)N2CCN(c3cccc(Cl)c3)CC2)nc2ccccc2c1=O | i | -1.3
N/C(CCS(=O)(=O)c1ccc(Cl)cc1)=N\OC(=O)c1ccc(Cl)cc1 | i | 0.2
CC(=O)N1CCOc2ccc(S(=O)(=O)NCCc3ccc(C)cc3)cc21 | i | 0.21
CC(=O)c1ccc(S(=O)(=O)N(Cc2cc3cc4c(cc3[nH]c2=O)OCCO4)CC2CCCO2)cc1 (configuration not stated) | i | 0.36
COc1ccc(NC(=O)C(=O)NCC2CCCN2S(=O)(=O)c2cc(C)ccc2C)cc1 (configuration not stated) | i | -2.5
CC(C)c1cc(C(=O)Nc2cccc(Cl)c2)no1 | i | -0.52
CCOC(=O)C(C)(C)Sc1nc2c(cnn2-c2ccc(F)cc2)c(=O)[nH]1 | i | -0.12
COc1cccc(N/C(N)=N/c2nc(C(F)(F)F)cc(C(F)(F)F)n2)c1 | i | -0.24
COc1ccc(Cn2nnnc2CN2CCN(c3ccc(OC)cc3)CC2)cc1 | i | -0.36
Cc1ccc(CN2C(=O)C(Cc3ccccc3)Nc3ncnc(N4CCN(c5ccccc5)CC4)c32)cc1 (configuration not stated) | i | 0.66
Cc1ccc2[nH]c(C)c(CCNC(=O)c3c(N)no[n+]3[O-])c2c1 | i | 1.2
CCOC(=O)C1CCN(c2cc3c(cc2NC(=O)c2ccccc2OCC)n(C)c(=O)n3C)CC1 | i | 3.8
Cc1ccc(S(=O)(=O)N2CCCC(c3nc(-c4ccc(C)o4)no3)C2)cc1 (configuration not stated) | i | -0.27
S=C(N=Nc1ccccc1)NNc1ccccc1 | i | -0.67
CN1C(=O)[C@@H]2[C@H](C1=O)[C@@H]1C(=O)Nc3ccccc3C(=O)N1[C@@H]2c1cccc(Br)c1 | i | 0.2
CCCOc1cccc(C2/C(=C(\O)c3ccc4c(c3)OCCO4)C(=O)C(=O)N2CCCn2ccnc2)c1 (configuration not stated) | i | 2.2
COC(=O)c1ccc(NC(=O)c2cccc(NC(=O)c3ccco3)c2)cc1 | i | -0.03
O=C(O)CCCn1c(=S)[nH]c2c(sc3ccc([N+](=O)[O-])cc32)c1=O | i | 3.8
Cc1cccc(N(Cc2ccccc2)C(=O)c2cccc(S(=O)(=O)N3CC(C)OC(C)C3)c2)c1 (configuration not stated) | i | -0.13
Fc1ccccc1N1CCN(Cc2nc(-c3ccccc3)no2)CC1 | i | 2.1
Cc1ccc(NC(=S)NNC(=O)c2ccccc2OC(F)F)cc1 | i | 2.2
COc1ccc(CN2CCC(n3nccc3NC(=O)C3CCCC3)CC2)cc1 | i | 1.2
Cc1cc(C(=O)COc2ccccc2C(N)=O)c(C)n1C1CC1 | i | -0.22
O=C(Nc1cccc2nsnc12)c1ccc2c(c1)OCO2 | i | -2.6
COc1ccc(CCN2C(=O)NC(NC(=O)CCc3ccccc3)(C(F)(F)F)C2=O)cc1OC (configuration not stated) | i | -0.15
